Tgondii IFNg: inhibitors of Toxoplasma gondii growth with IFN-gamma. Toxoplasma gondii growth in IFN-gamma-treated host cells; stronger effect = lower value; reference of the scale not given here. activity change, negative = inhibition, %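 (about 20 µM by stock and volumes)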. hit rate 3.8% among 69,000. AID 1259416;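 active = below -70%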;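 also: host cells are HeLa cells infected with Toxoplasma gondii; parasite growth read as luciferase light; one replicate is shown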
Starred values were filed as active, the others as inactive; i = inactive.

canonical_smiles | Tgondii IFNg
CN1C(=O)c2cc(NC(=O)c3ccc(F)c(F)c3)ccc2OC[C@@H]2O[C@@H](CC(=O)N3CCCCC3)CC[C@@H]21 | -29
CC1N(CC2CC2)C(=O)COC12CCN(C(=O)c1ccco1)CC2 (stereo unspecified) | -6
COCC1CN(c2cc(OC)ncn2)Cc2cncn2C1 (stereo unspecified) | 4
Cc1ccc(CNCCNC(=O)c2nonc2N)s1 | -33
COc1ccccc1-c1ccc([C@@H]2[C@@H](C#N)N[C@@H]2CO)cc1 | 23
Cc1cc(NC(=O)c2cncc(NS(=O)(=O)c3ccc(Cl)cc3)c2)no1 | 0
COc1ccc(-c2nc(CCNC(=O)c3c(F)cccc3F)cs2)cc1 | i
Cc1nn(-c2cccc(C(=O)N3CCCC(N)CC3)c2)c(=O)c2ccccc12 (stereo unspecified) | 8
c1ccc(C[C@@H]2CNCC[C@H]2OCc2ccccn2)cc1 | -24
CCn1c(C2CCCN(C(=O)CC34CC5CC(CC(O)(C5)C3)C4)C2)n[nH]c1=O (stereo unspecified) | 2
CC(CNC(=O)CCN1Cc2cc(Cl)ccc2OC(C)C1)Oc1cccnc1 (stereo unspecified) | -49
O=C(O)[C@H]1C[C@@H](C(=O)NC2CC2)CN(C(=O)Cc2ccccc2F)C1 | 9
CN(C)CCCn1c(=O)n(Cc2c(F)cccc2F)c2ccc(C(=O)O)cc21 | 28
CC(c1ccc(-c2cnn3cccnc23)cc1)N1CCCC1 (stereo unspecified) | 4
Cn1c(=O)c2c(nc(SCCN3CCCCC3)n2C)n(C)c1=O | -5
CCSc1nc2c(c(=O)n1C)C1(CCCCC1)Cc1ccccc1-2 | -73*
CC(SC(=S)N1CCCCCC1)C(=O)O (stereo unspecified) | -7
COCCN1C(=O)CCc2cc(NS(=O)(=O)c3c(C)cccc3Cl)ccc21 | -6
CCC(=O)O[C@]1(C(=O)CO)CC[C@H]2[C@@H]3CCC4=CC(=O)CC[C@]4(C)[C@H]3CC[C@@]21C | 1
CCCCNc1ncnc2c1cnn2-c1ccc(C)cc1C | -18
N#C[C@@H]1[C@H](c2ccccc2C2=CCCC2)[C@@H](CO)N1C(=O)C1CCOCC1 | -27
C[C@H](CO)N1C[C@H](C)[C@H](CN(C)C(=O)C2CCCCC2)OCCCC[C@H](C)Oc2ccc(NS(=O)(=O)c3ccccc3)cc2C1=O | -102*
COc1ccccc1-c1nc(Cn2c(=O)c3cccnc3n(-c3ccccc3OC)c2=O)c(C)o1 | 6
C[C@H]1CCCCO[C@@H](CN(C)Cc2ccc(C(=O)O)cc2)[C@@H](C)CN([C@@H](C)CO)C(=O)c2cc(N(C)C)ccc2O1 | 158
Cc1ccccc1CSc1ccc(-c2sc(-c3ccc(F)cc3)nc2C)nn1 | -52
COc1ccccc1CN1C(=O)O[C@@H]2CN(C(=O)c3cc4ccccc4o3)C[C@@H]21 | -2
CC(=O)NCC(=O)N1CCOCC2(CCC(Cn3cccn3)O2)C1 (stereo unspecified) | -3
COc1ccc(C(O)C(=O)NCc2nn(C)c3ccc(C)cc23)cc1 (stereo unspecified) | 10
Cc1ccc(-n2ncc3c(NCC4CCCO4)ncnc32)c(C)c1 (stereo unspecified) | -3
CCOC(=O)CSCc1noc(COc2ccc(Cl)cc2Cl)n1 | -69
CC(=O)Nc1ccc(S(=O)(=O)Nc2ccc3c(c2)CCC(=O)N3C)cc1 | 35
Cc1ccc(S(=O)(=O)Nc2cccc(CCc3ccccn3)c2)cc1 | -64
Cc1noc(C)c1NC(=O)N[C@@H]1C=C[C@@H](CC(=O)Nc2ccc(-c3ccccc3)cc2)O[C@@H]1CO | -7
O=C(Nc1nc2c(s1)CCCCCC2)C1=NN(C2CCS(=O)(=O)C2)C(=O)CC1 (stereo unspecified) | -32
CCCNC(=O)C[C@H]1CC[C@@H]2[C@H](COc3ccc(NC(=O)CC)cc3C(=O)N2C)O1 | 11
Cc1noc(C)c1S(=O)(=O)N(C)C[C@H]1OCCCC[C@@H](C)Oc2ccc(N(C)C)cc2C(=O)N([C@@H](C)CO)C[C@@H]1C | i
O=C(CN1C(=O)CCc2cc(S(=O)(=O)N3CCCCC3)ccc21)NC1CCCCC1 | 11
c1ccc(-c2cc3ncnc(N4CCSCC4)c3s2)cc1 | -99*
COCC(=O)N1CCOC2(COCCN(Cc3csc(C)n3)C2)C1 (stereo unspecified) | 55
CCc1ccc2c(c1)cc(S(=O)(=O)c1ccccc1)c(=O)n2CC(=O)NC(C)C | -38
CCOC(=O)C(C(=O)OCC)C1CCS(=O)(=O)C1 (stereo unspecified) | 7
COCC1COCCC12CCN(C(=O)CCc1ccccc1C)CC2 (stereo unspecified) | -3
COc1ccc(NC(=O)N2CCN(Cc3nc(-c4ccc(C)cc4)oc3C)CC2)cc1OC | -34
C[C@]12CCC3=C4CCC(=O)C=C4CC[C@H]3[C@@H]1CC[C@@]2(O)CC#N | -70
COc1ccc2cc(C(=O)C3CCCN(C(=O)Cn4cnnn4)C3)ccc2c1 (stereo unspecified) | 11
O=C(COCc1nnn2c1CN(Cc1ccco1)CCC2)N1CCCC1 | 1
Cc1cc(C)n(C(=O)CNC(=O)c2ccc(Cl)cc2Cl)n1 | -23
CCCCS(=O)(=O)N1CCC2C1CCC(=O)N2c1cnn(C)c1 (stereo unspecified) | -2
O=C(NCCNc1cccnc1)C(=O)N1CCc2ccccc2C1 | 1
Cn1cc(CN2CCC23CCN(Cc2ccccc2F)C3)cn1 (stereo unspecified) | -36
Cc1nc(CCn2ncc3ccccc32)cc(NCCCN(C)c2ccccc2)n1 | 25
O=C(C1CCOCC1)N1CC[C@@H](O)[C@@H]1Cc1ccncc1 | -48
Cc1nc(N2[C@H](C#N)[C@H](c3ccccc3)[C@H]2CO)sc1C | 10
CCCC(=O)NCCc1sc(-c2cccc(F)c2)nc1C | 257
COc1cccc(N2CCN(c3cc(CCN)nc(C)n3)CC2(C)C)c1 | -12
COc1ccc(C(=O)Nc2ccc3nc(C)c(C)nc3c2)cc1OCc1ccccn1 | 11
CCN(CC)C(=O)c1cc(=O)n(CC(=O)Nc2ccc(Cl)cc2)c2ccccc12 | 5
O=C(Cn1ncc2c(N3CCN(c4ccccn4)CC3)ncnc21)NCc1ccc(F)cc1Cl | 117
O=C(O)COc1ccc(OCCNC[C@H](O)COc2ccccc2)cc1 | 27
CN(C)CC(=O)N1CCN(c2ccc3ccc(C(=O)NC4CCCC4)cn23)CC1 | -58

Some of these compounds in order of SMILES length, ascending:
canonical_smiles | Tgondii IFNg
CCCC(=O)NCCc1sc(-c2cccc(F)c2)nc1C | 257
Cn1cc(CN2CCC23CCN(Cc2ccccc2F)C3)cn1 (stereo unspecified) | -36
COc1ccc(C(=O)Nc2ccc3nc(C)c(C)nc3c2)cc1OCc1ccccn1 | 11

(further entries)
canonical_smiles | Tgondii IFNg
Cn1c(=O)n(CCc2ccccc2)c2ccc(C(=O)O)cc21 | -3
O=C(O)C1CC=CCC1C(=O)Nc1ccc(Cl)cc1 (stereo unspecified) | 9
CC1(C)CC(=O)c2cnc3cc(-c4ccccc4)nn3c2C1 | -87*
Cc1c(C(=O)NN2CCCCC2)nn(-c2ccc(Cl)cc2Cl)c1-c1ccc(Cl)cc1 | -53
Cc1[nH]c2ccccc2c1C(c1ccc(N(C)C)cc1)c1c(C)[nH]c2ccccc12 | 7
CN1[C@H](C(=O)NCc2ccccn2)[C@@H](CO)[C@@H]2Cn3c(ccc(-c4ccc(F)cc4)c3=O)[C@@H]21 | 1
CC(C)(C)OC(=O)NC(CC(N)=O)C(=O)O (stereo unspecified) | 64
COc1ccc(OCC(=O)N2CCC(C)(C(=O)NCc3ccc(F)cc3F)CC2)cc1 | 31
Cc1ccc(NC(=O)Cn2c(=O)ccc3cc(S(=O)(=O)N4CCC(C)CC4)ccc32)cc1 | -44
Cc1ccc(Sc2ccc(C(=O)c3ccccc3)cc2)cc1 | -78*
Cc1noc(C)c1S(=O)(=O)Nc1ccc(Cl)cc1 | 33
CCOc1ccc2nc(N3CCCC(N4CCN(c5nonc5C)CC4)CC3)nc(C)c2c1 (stereo unspecified) | 0
Cc1ccc(-c2cc(C3CCN(C(=O)C4CCCO4)C3)nc(N(C)C)n2)cc1 (stereo unspecified) | -60
COc1ccc(-c2nc(N3CCC(N4CCCCC4)CC3)c3ccccc3n2)cc1 | -49
CC(=O)N[C@H]1C[C@@H](CCn2nc(C)cc2C)O[C@@H](CCc2ccccc2)C1 | -9
O=C(NC1CCCOC1)c1cc(C2CCN(Cc3ccncc3)CC2)no1 (stereo unspecified) | -15
COC(=O)c1cc2n(n1)CCN(C(=O)c1cccc(-c3cn[nH]c3)c1)C2 | -57
CC1(C)Cc2ccccc2-c2n[nH]c(=S)n21 | -3
Cc1nc(CCNC(=O)CC2COCCN2)sc1C (stereo unspecified) | 1
NC(=O)C1CCN(CCC(=O)O)CC1 | 3
O=C(C1CCCN(c2cnc3nccnc3c2)C1)N1CCC(N2CCCCC2)CC1 (stereo unspecified) | 11
CCOc1ccc(S(=O)(=O)NCCc2sc(-c3ccc(C)cc3)nc2C)cc1 | -23
O=C(Cn1ncc2c(N3CCN(c4ccccn4)CC3)ncnc21)Nc1cccc(Br)c1 | -99*
O=C(N[C@@H]1CC[C@@H](CC(=O)N2CCOCC2)O[C@@H]1CO)c1cccc(F)c1 | -12
Cc1ccn(CCNc2nccc(-c3c(C)nn(C)c3C)n2)n1 | -36
O=C(Cn1ncc2c(N3CCCCC3)ncnc21)NCc1ccc(F)cc1Cl | -30
O=C(O)CCCOc1ccc(F)cc1F | -21
NC(=S)NN=C1Cc2ccccc2C1 | 68
Cc1cccc2[nH]c(CCNC(=O)[C@H]3CCCO3)nc12 | -39
CCCCOn1c(C)c(C(C)=O)c2c3no[n+]([O-])c3ccc21 | -3

Given as labelled records: part of the list above
> O=C(Cn1ncc2c(N3CCCCC3)ncnc21)NCc1ccc(F)cc1Cl
  Tgondii IFNg = -30
> O=C(O)CCCOc1ccc(F)cc1F
  Tgondii IFNg = -21
> NC(=S)NN=C1Cc2ccccc2C1
  Tgondii IFNg = 68
> Cc1cccc2[nH]c(CCNC(=O)[C@H]3CCCO3)nc12
  Tgondii IFNg = -39

Further results follow.
canonical_smiles | Tgondii IFNg
CCc1ccc(Nc2nc(C(=O)NC3CCCC3)nc3ccccc23)cc1 | -63
Cc1noc(C)c1S(=O)(=O)Nc1ccc2c(c1)C(=O)N([C@H](C)CO)C[C@@H](C)[C@@H](CN(C)Cc1ccc(C(=O)O)cc1)OCCCC[C@H](C)O2 | -16
CCCNC(=O)[C@H]1[C@H](CO)[C@H]2Cn3c(ccc(C4=CCCC4)c3=O)[C@H]2N1C(=O)c1cnccn1 | 3
Cc1cc(C)c(CN(C)C(C)C(=O)N(C)C)c(-n2cccn2)c1 (stereo unspecified) | -3
COc1ccccc1N(Cc1nc(-c2cccc(C)c2)oc1C)S(=O)(=O)c1ccccc1C | -49
CC(C)[C@H]1C(=O)N[C@@H](c2cccc(Cl)c2)CC=CC[C@H](C)Oc2ccccc2C(=O)N1C (mixture of isomers) | -44
Cc1cc(C(=O)N2CCC3(CCCO3)CC2)c2c(=O)[nH]c(=O)n(C)c2n1 | -10
COC(=O)N[C@H](C(=O)N[C@@H](Cc1ccccc1)[C@@H](O)CN(Cc1ccc(-c2ccccn2)cc1)NC(=O)[C@@H](NC(=O)OC)C(C)(C)C)C(C)(C)C | -2
Cc1oc(-c2ccc(NC(=O)Cc3ccc(Cl)cc3)cc2)nc1Cn1cccn1 | -36
COc1cc(N)ccc1-n1nc(C)cc1C | 5
Cc1cnc2c(C(=O)Nc3cccc(OCCN4CCOCC4)c3)cnn2c1 | 4
Cn1cccc1C(=O)NCc1cn2c(n1)CN(C(=O)c1cccs1)CC2 | -13
CCCCNC(=O)CCC1N=C2c3ccccc3N=C(SCc3ccc(F)cc3)N2C1=O (stereo unspecified) | -4
CNC(=O)C[C@H]1CC[C@H]2[C@@H](COC[C@H](O)CN2Cc2ccccc2F)O1 | 22
Cc1nn2cnnc2c(C)c1CCC(=O)Nc1cccc(-c2ccc(F)cc2)c1 | -31
CS(=O)(=O)N1[C@H](C#N)[C@@H](c2ccc(/C=C/c3ccccc3)cc2)[C@H]1CO | 42
O=C(Cc1ccccn1)N[C@H]1CC[C@H](CCNS(=O)(=O)c2cccc(F)c2)O[C@@H]1CO | 87
Cc1cc(C)n2nc(CC(=O)NC3CCN(Cc4ccccc4)C3)nc2n1 (stereo unspecified) | 21
COCCN1C(=O)CCC12CCC(NC(=O)c1cnc(C)cn1)CC2 (stereo unspecified) | -6
CCn1nc(C(=O)N2CCCC(O)(CO)C2)cc1C (stereo unspecified) | 3
Cc1ccc(-c2nc3cnccn3c2NCCC(=O)NC2CCN(C)CC2)cc1 | 53
CCOc1ccc(N(CC(=O)NC2CCCCC2)C(=O)CNC(=O)c2ccco2)cc1 | -10
Fc1ccccc1N1CCN(Cc2c(C3CCOCC3)[nH]c3ncccc23)CC1 | -5
CN1CC2(CCCN(C(=O)c3ccc(Cn4ccnc4)o3)CC2)OC1=O (stereo unspecified) | 2
Cc1nc(-c2ccccc2)sc1CCNS(=O)(=O)c1ccccc1 | 369
Cc1ccc(NC(=O)c2nnn(Cc3nc(-c4ccccc4C)oc3C)c2C)c(Br)c1 | 121
Cc1ccc(C(=O)Nc2nccc(-c3ccc4c(c3)OCCO4)n2)cc1 | 0
CS(=O)(=O)N1Cc2cc(C(=O)O)nc(-c3cccc(-c4ccccc4F)c3)c2[C@@H]1CCO | -12
O=C(O)Cn1cc(NC(=O)C2CCCC2)cn1 | 16
Cc1ccc(CC(=O)N2CCC3(CC2)Nc2cc(F)ccc2-n2cccc23)cc1 | 39

Bioassay records (PubChem BioAssay)

The list is partial. The share of hits here may be higher or lower than overall.
